Screens (PubChem BioAssay)
SARS PLP yeast = qHTS of Yeast-based Assay for SARS-CoV PLP. S. cerevisiae expressing SARS-CoV PLpro, growth rescue; control for the full effect not named in the record. AID 485353, 2010. Potency, µM (doses to about 32.9 µM), inactives show at the highest dose activity, positive = growth rescue. 330,000 tested, 0.19% active; also: 0% is about no effect; nearly all actives have a fitted effect of over 55% in size; growth read by luminescence after 48 h
MARV entry inh = qHTS for inhibitors of binding or entry into cells for Marburg Virus; Marburg virus pseudotyped entry inhibition, cell reporter; control for the full effect not named in the record; about a third of the inactives were read at about 46 µM; 300,000 tested, 1.8% active; AID 540276, 2011; Potency, µM (top dose mostly 37.8 µM), for inactives: at the top dose activity change, negative = inhibition, usual class: inhibitors; active = well fitted inhibition curve with a large enough effect; inconclusive = small, poorly fitted or top-dose-only effect, or effect the other way; inactive = flat fitted curve, though single readings scatter; tested in HEK293 cells; about a fifth of its hits are not listed in these tables; also: % is scaled to controls: 0 for no effect and ±100 for the full control effect; luciferase read-out
Cruzain Triton = qHTS Assay for Promiscuous and Specific Inhibitors of Cruzain (with detergent); 200,000 tested, 0.43% active; Cruzipain (Trypanosoma cruzi), P25779; Potency, µM, without a hit: max response, negative = inhibition, usual class: inhibitors; purified cruzain, Z-FR-AMC fluorescence, 0.01% Triton; active = well fitted curve in the direction sought with a large enough effect; inconclusive = small, poorly fitted or top-dose-only effect, or another doubt; inactive = no such curve, though single readings can be large; an effect the other way counts as inactive or inconclusive;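 also: plate controls were neutral wells for no effect and buffer without enzyme for full effect; nearly all actives have a fitted effect of over 40% in size; top concentration of the series not given in the record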
Target sequence (P25779 123-467 limits assumed): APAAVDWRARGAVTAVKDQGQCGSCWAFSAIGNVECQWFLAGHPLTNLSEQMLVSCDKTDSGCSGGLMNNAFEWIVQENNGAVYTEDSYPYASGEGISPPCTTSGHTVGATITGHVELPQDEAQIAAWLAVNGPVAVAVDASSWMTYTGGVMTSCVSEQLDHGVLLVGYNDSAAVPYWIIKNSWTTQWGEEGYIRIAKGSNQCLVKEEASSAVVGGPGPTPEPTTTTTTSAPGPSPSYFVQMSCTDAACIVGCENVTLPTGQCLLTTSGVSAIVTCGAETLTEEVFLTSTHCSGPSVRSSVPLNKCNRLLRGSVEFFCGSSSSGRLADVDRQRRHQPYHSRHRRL
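Enzyme 1.5 nM, Z-FR-AMC 2 uM, NaOAc 100 mM pH 5.5, DTT 5 mM, Triton X-100 0.01%; 15 min RT compound preincubation; kinetic ex360/em450, 60 s delta.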
Cruzain noTriton = qHTS Assay for Promiscuous and Specific Inhibitors of Cruzain (without detergent) | Cruzipain (Trypanosoma cruzi), P25779 | purified cruzain, Z-FR-AMC fluorescence, no detergent | Potency, µM, without a hit: max response, negative = inhibition, most hits filed as inhibitors | 200,000 tested, 2.3% active; active = well fitted curve in the direction sought with a large enough effect; inconclusive = small, poorly fitted or top-dose-only effect, or another doubt; inactive = no such curve, though single readings can be large; an effect the other way counts as inactive or inconclusive;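 also: plate controls were enzyme without inhibitor for no effect and buffer without enzyme for full effect; nearly all actives have a fitted effect of over 40% in size; top concentration of the series not given in the record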
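Purified cruzain at 1.5 nM, pre-incubated 15 min with compound at room temperature in 100 mM sodium acetate pH 5.5, 5 mM DTT, 0.00005% Triton X-100. Reaction started with 2 uM Z-FR-AMC; AMC fluorescence increase over 60 s gives rate.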
StopGo reporter = High Throughput Screening for Foot and Mouth Disease Virus Antivirals | 410,000 tested, 1.2% active | Potency, µM (series often up to 57.9 µM), without a hit: at the top dose signal change, negative = less light | human cells with a luciferase reporter of 2A StopGo recoding; control for the full effect not named in the record; active = well fitted falling curve with a large enough effect; inconclusive = small, poorly fitted or top-dose-only effect; inactive = no such curve, though single readings can be large or run the other way; tested in HEK293T cells; also: % is scaled to controls: 0 for no effect and ±100 for the full control effect; nearly all actives have a fitted effect of over 45% in size; luciferase light after 4 h
RE007 growth inh = qHTS Assay for Inhibitors of the HIV-1 protein Vpr | S. pombe RE007 Vpr strain, BacTiter-Glo ATP luminescence, 24 h; control for the full effect not named in the record | Potency, µM (titrated, usually from 92.2 µM), for the others: top-dose activity change, negative = less growth | 360,000 tested, 0.21% active | AID 651644, 2012; active = well fitted falling curve with a large enough effect; inconclusive = small, poorly fitted or top-dose-only effect; inactive = no such curve, though single readings can be large or run the other way;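 also: % is scaled to controls: 0 for no effect and ±100 for the full control effect; nearly all actives have a fitted effect of over 50% in size; the assay follows cell death caused by Vpr and the record does not say whether a fall means rescue or toxicity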
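Fission yeast strain RE007, carrying one chromosomally integrated HIV-1 vpr copy, was seeded at OD 0.01 in PMG+AL medium with 23 nL pinned compound. After 24 h at 30 °C and 99% humidity, viability was read by BacTiter-Glo luminescence.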
NS1 function inh = qHTS Assay for Inhibitors of Influenza NS1 Protein Function | Potency, µM (highest dose often 46.1 µM), without a hit: top-dose activity, positive = more growth | AID 2326, 2010 | S. cerevisiae slowed by influenza A NS1, growth recovery by OD600 | 270,000 tested, 0.4% active; also: actives are rising curves; nearly all actives have a fitted effect of over 50% in size
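OD600 was taken as the measure of yeast growth restored by compound in an NS1-expressing S. cerevisiae strain. Cells had been washed out of glucose medium and diluted 1:100 into galactose -URA medium, pH 6.0.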
LASV entry inh = qHTS for Inhibitors of binding or entry into cells for Lassa Virus. Lassa virus pseudotype entry inhibition, cell reporter; control for the full effect not named in the record. Potency, µM (top dose mostly 37.9 µM), without a hit: at the top dose activity change, negative = inhibition, hits mostly inhibitors. 300,000 tested, 1.2% active. AID 540256, 2011; active means well fitted inhibition curve with a large enough effect; inconclusive means small, poorly fitted or top-dose-only effect, or effect the other way; inactive means flat fitted curve, though single readings scatter; tested in HEK293 cells; also: % is scaled to controls: 0 for no effect and ±100 for the full control effect; nearly all actives have a fitted effect of over 50% in size; luciferase read-out
Numbers without * were called inactive; ? = inconclusive; . = no result given; & = joins results of further samples; [ ] = dose if it differs, or a comment. Unless noted, calls follow the shape of the dose curve; as a rule, active means well fitted rising curve with a large enough effect; inconclusive means small, poorly fitted or top-dose-only effect; inactive means no such curve, though single readings can be large or run the other way. Potency is read from the fitted curve at half-maximal effect.

SMILES	SARS PLP yeast	MARV entry inh	Cruzain Triton	Cruzain noTriton	StopGo reporter	RE007 growth inh	NS1 function inh	LASV entry inh
Cc1csc(SCC(=O)NC(=O)NCCC(C)C)n1	-1%	7%[46.1 µM]	.	.	0%	23%	0%	0%
CSc1ncc(Cl)c(C(=O)NCc2ccc3c(c2)OCO3)n1	-1%	12%	-0.9%	-7%	0%	2%	?	?
CN(C)S(=O)(=O)N(CC(=O)Nc1ccc2ccccc2c1)c1ccccc1	6%	-22%[46.1 µM]	-10%	8%	-24%	7%	-13%	-15%
CN(C)CCCN(C(=O)c1ccco1)c1nc2cc3c(cc2s1)OCO3	-2%	.	.	.	-12%	7%	13%	.
COc1ccc(OCC(=O)Nc2cc(-c3nn(C)c(=O)c4ccccc34)ccc2OC)cc1	-9%	4.1µM*	-3.4%	10%	?	0%	7%	?
CC1(C)C(=O)Nc2ccccc2N1C(=O)COC(=O)CCSc1ccccc1	-2%	-6%	-5.8%	-8%	14%	-5%	-1%	-2%
O=C(Cn1nc(C(F)(F)F)c2c1CCCC2)Nc1ccc(Br)cc1	.	.	-5.5%	-8%	?	.	.	?
CCN1C/C(=C/c2ccc(N3CCOCC3)cc2)C(=O)/C(=C/c2ccc(N3CCOCC3)cc2)C1	4%	?	-4.5%	?	28µM*	?	4%	?
CC(=O)C1C(c2ccc(Cl)cc2)c2c(noc2C)CC1(C)O (stereo not given)	0%	.	.	.	-14%	-16%	-4%	.
CCOC(=O)C1(C(=O)OCC)NC(=O)CC1C (stereo not given)	.	2%[46.1 µM]	.	.	-16%	9%	.	19%[46.1 µM]
CC(C)(C)NC(=O)C(OC(=O)c1cccs1)c1ccccc1 (stereo not given)	0%	.	.	.	19%	-7%	1%	.
CCOC(=O)c1sc2ncnc(NCC(c3cccs3)N(C)C)c2c1C (stereo not given)	1%	?	6.3%	0%	4%	-13%	0%	16%
Cc1ccc2oc(=O)c3cc(C(=O)NCCc4ccc(Cl)cc4)sc3c2c1	.	2%[46.1 µM]	-0.1%	-2%	-4%	.	.	14%[46.1 µM]
COc1ccc(C(CNC(=O)c2oc3ccc(Cl)cc3c2C)N2CCCCC2)cc1 (stereo not given)	0%	3%&3%[46.1 µM]	0.0%	8%	?	0%	2%	2%[46.1 µM]
COc1nc(-c2ccccc2)ccc1-c1noc(C)n1	.	10%	-9.7%	26%	-1%	-19%	-43%	24%
O=C(NC(=S)N1CCCC1)c1ccc(Cl)cc1Cl	5%	.	.	.	-6%	-22%	-10%	.
CCN(CC)S(=O)(=O)c1cccc(NC(=O)C2CC(=O)N(c3ccc4c(c3)OCCO4)C2)c1 (stereo not given)	-3%	?	.	.	-22%	2%	.	-20%
COC(=O)C1=C(C)NC(=O)/C1=C\c1ccco1	-5%	0%[46.1 µM]	-1.2%	-2%	14%	?	-18%	19%
Cc1ccc2cc(CCNC(=O)c3ccc(S(=O)(=O)N4CCCCC4)cc3)c(=O)[nH]c2c1	0%	?	.	.	-24%	23%	1%	?
COc1ccc(CNC(=O)CN(C)S(=O)(=O)c2ccc3c(c2)c(=O)n(C)c(=O)n3C)cc1	1%	-8%&-8%[46.1 µM]	3.8%	8%	-22%&-20%	-7%	-13%	22%[46.1 µM]
COc1ccccc1CCc1nnc(CCC(=O)N(C)Cc2cccc3cnccc23)o1	-1%	-11%[46.1 µM]	.	.	-3%	-7%	-4%	9%[46.1 µM]
Cc1nc2scc(C)n2c(=O)c1S(=O)(=O)N1CCN(c2ccccc2)CC1	-3%	-22%[46.1 µM]	.	.	-13%	5%	3%	-20%[46.1 µM]
CCOc1ccc(NC(=O)CSc2oc(-c3cccs3)nc2S(=O)(=O)c2ccc(C)cc2)cc1	.	-1%[46.1 µM]	4.9%	6%	-7%	.	.	0%[46.1 µM]
CCc1ccccc1N(C)S(=O)(=O)c1ccc2[nH]cc(C(=O)O)c(=O)c2c1	28%	26%	.	.	-1%	7%	.	13%
CC(C)c1nc(SCC(=O)N2CCCc3ccccc32)c2c(=O)n(C)c(=O)n(C)c2n1	2%	-5%	-10%	7%	?	6%	5%	.
COc1ccc(CN2CCN(CCC(C)C)C(CCO)C2)cc1Cn1cncn1 (stereo not given)	-1%	.	.	.	-5%	-1%	-1%	.
COc1ccc(CCn2c(SCC(=O)Nc3cc(C)on3)nc3ccccc3c2=O)cc1OC	0%	10%	5.1%	7%	?	3%	0%	3%
Cc1csc(NC(=O)CCCc2cccs2)n1	3%	27%[46.1 µM]	.	.	21%	33%	.	11%
O=C(NC(Cc1c[nH]c2ccccc12)C(=O)O)c1ccc(Br)cc1 (stereo not given)	1%	9%[46.1 µM]	.	.	-16%	5%	.	-10%
Cc1ccc(-c2noc(-c3ccccc3NC(=O)C3CC(=O)N(c4cccc(C)c4)C3)n2)cc1 (stereo not given)	.	12%[46.1 µM]	-1.2%	5%	41%[activator]	.	.	21%[46.1 µM]
O=C(NCCCN1CCOCC1)NC1CCCCC1	15%	?	6.5%	-8%	11%	2%	6%	-3%
O=C1C(=O)N(Cc2ccco2)C(c2cccc(Cl)c2)/C1=C(\O)c1ccc2c(c1)OCCO2 (stereo not given)	15%	3%	-13%	26%	-15%	2%	11%	3%
CCCCC(=O)Nc1cc2nn(-c3ccc(OC)cc3)nc2cc1C	8%	20%	0.1%	-19%	55%[activator]	3%	-8%	?
CCCC(CCC)C(=O)OC1C[C@H]2CC[C@@H](C1)[N+]2(C)C (stereo not given in full)	0%	?	4.6%	-4%	-16%	-10%[18.4 µM]	?	6%
Cc1cc(S(=O)(=O)Nc2ccc(F)cc2)c(C)s1	-8%	7%	3.4%	3%	11%	-3%	3%	-6%
CC(C)(C)c1nnc(NC(=O)CCS(=O)(=O)Cc2ccccc2)s1	5%	-13%[46.1 µM]	.	.	-29%	-7%	3%	.
CC(C)COC(=O)CCNc1n[nH]c(=O)[nH]c1=O	2%	-20%&-20%	2.6%	-2%	3%	1%	19%	-4%
COc1ccc(S(=O)(=O)NCc2ccncc2)cc1NC(=O)c1ccccc1C	-4%	-27%[46.1 µM]	.	.	13%	4%	.	-24%
COc1ccccc1NC(=O)CSc1nncn1-c1cccnc1	-23%	-3%	0.1%	-11%	11%	1%	-1%	5%
CCOc1ccccc1-c1cc(-c2n[nH]c(=S)n2CC)c2ccccc2n1	24%	-30%	-5.9%	?	-23%	9%	8%	3%
Cc1cc(/C=N/NC(N)=S)c(C)n1-c1ccc(Cl)cc1	11µM*	?	28µM*	?	-12%	-10%	14%	?
CCC1CCC2(CC1)NC(=O)N(CC(=O)Nc1cc(C)on1)C2=O (stereo not given)	-8%	5%	1.4%	0%	-22%	-5%	18%	-1%
Cc1cccc(NC(=O)CCCCCN2C(=O)[C@@H]3Cc4ccccc4CN3C2=O)c1	-2%	.	.	.	0%	7%	-12%	.
COc1cc(NC(=O)Cn2c([N+](=O)[O-])cnc2C)c(OC)cc1Cl	3%	.	.	.	-12%	0%	15%	.
CCC(=O)n1nc(-c2ccc(Cl)cc2)nc1N	-2%	.	.	.	21%	-7%	-1%	.
COc1cc(/C=C/c2[nH]c(=O)[nH]c(=O)c2[N+](=O)[O-])cc([N+](=O)[O-])c1O	1%	.	.	.	-19%	11%	?	.
Cc1nc2ccc(NC(=O)NCCO)cc2s1	2%	13%	4.2%	6%	-11%	-15%	1%	4%
COc1cc(NC(=O)c2cc(C)nc3ccccc23)cc(OC)c1OC	0%	3%[46.1 µM]	.	.	-7%	-13%	.	21%[46.1 µM]
CCOc1ccccc1OCCCCN1CCCC1	12%	-21%[46.1 µM]	3.0%	-7%	0%	20%	-10%	1%
Cc1cc(NS(=O)(=O)c2ccc(NC(=O)/C=C/c3ccco3)cc2)nc(C)n1	-1%	0%[46.1 µM]	.	.	9%	6%	0%	-6%
COc1ccccc1NC(=O)/C(=C\c1cccs1)NC(=O)c1ccco1	-1%	.	.	.	-5%	-16%	1%	.
CCCC1=C(C(=O)OCC)C2(C(=O)Nc3ccc(C)cc32)C(C#N)=C(N)O1 (stereo not given)	3%	-14%	-1.1%	0%	-11%	10%	3%	3%
CCCC(O)c1nc2ccccc2n1CCCCOc1ccc(OC)cc1 (stereo not given)	.	?	-4.6%	2%	?	.	.	21%[46.1 µM]
COc1cccc(N2CCN(C(=O)c3cc4ccc(OC)cc4[nH]3)CC2)c1	0%	.	.	.	13%	-9%	6%	.
COc1cc(NC(=O)CN2C(=O)c3ccccc3Sc3ccc(C(=O)N4CCOCC4)cc32)cc(OC)c1OC	5%	-1%[46.1 µM]	.	.	-7%	2%	.	15%
CCC(=O)Nc1nnc(SCCOC)s1	-3%	15%	6.2%	4%	22%	4%	-7%	11%
O=C(CS(=O)(=O)Cc1ccccc1)N1CCN(c2ccccc2F)CC1	-2%	?	.	.	5%	?	-3%	1%
CCOC(=O)c1c(/N=C/C2=C(O)CC(C)(C)CC2=O)sc(C(C)=O)c1C	-2%	?	.	.	8%	-15%	-9%	-21%[46.1 µM]
CO/N=C\CC(=O)Nc1ccc(Cl)c(Cl)c1	0%	?	.	.	-12%	-19%	-2%	-26%[46.1 µM]
COc1ccc2c(c1)-c1nc(NC(=O)c3cccc(Br)c3)sc1CC2	.	3%[46.1 µM]	-7.3%	?	-8%	.	.	-4%[46.1 µM]
